# ALR H2O2 inh – inhibitors of human sulfhydryl oxidase ALR; P55789; purified ALR, DTT oxidation, H2O2 HRP-luminol luminescence; inhibition, % (concentration not given with the values); 290,000 compounds, 3.8% hits; AID 485317;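 active means mean and each replicate at 75% or more; inconclusive means only one of the two met; inactive means neither met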;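 further: stock transfer was 7.5 nL into about 7.5 µL; 0% = neutral wells and 100% = wells with inactivated enzyme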
# Target sequence (P55789 whole entry, looked up): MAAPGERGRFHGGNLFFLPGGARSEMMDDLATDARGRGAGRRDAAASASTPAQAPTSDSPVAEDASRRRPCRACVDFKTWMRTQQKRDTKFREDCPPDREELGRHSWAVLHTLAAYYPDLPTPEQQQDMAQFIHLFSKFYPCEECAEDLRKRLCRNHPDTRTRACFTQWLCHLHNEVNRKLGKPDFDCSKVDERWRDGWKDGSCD
# Vif A3G – HIV-1 Vif–A3G interaction blockers – biochemical, TR-FRET, GST-Vif 1-94, biotin-A3G peptide, dose response retest, primary screen (AID 1117319); inhibition, %; hits with a dose series show IC50 in µM; TR-FRET GST-Vif / biotin-A3G peptide binding; higher % means a stronger effect; test concentration not given here; strong numbers were not always called active; 260,000 compounds, 0.57% hits;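 active means above the screen mean plus three standard deviations and confirmed in dose response; inconclusive means results disagree or hit not tested in dose response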;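 further: Vif residues 1-94 fused to GST binding biotinylated APOBEC3G peptide 110-148; 0% = full assay without inhibitor and 100% = GST in place of GST-Vif; retest series ran down from 100 µM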
# HNF4A DNA FP – change in binding of human HNF4 alpha to DNA; HNF4a-FITC DNA binding, fluorescence polarization, 1 h; activity change, % at 10 µM; 360,000 compounds, 0.3% hits; AID 1224865; in the data active means activity change above about 30%, passing the limit was not always enough;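 further: controls were the assay level and a saturating level of protein; the project sought stronger binding though the title names inhibitors; some compounds called inactive have numbers as strong as hits; positive values seem to mean higher polarization but the record does not say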
# Calb FLC – C. albicans growth modulation with fluconazole. growth inhibition, % (no concentration beside the values). 300,000 compounds, 0.57% hits. C. albicans CaCi-2 (fluconazole-resistant clinical isolate) + fluconazole, Alamar Blue growth, 48 h. AID 1979;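 active means most replicates above 75%; inconclusive means exactly half above 75%; inactive means most below 75%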;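 further: all wells also contain fluconazole at 8 µg/ml as a sub-toxic cotreatment; 0% = median of DMSO wells and 100% = median of geldanamycin control wells; wells of about 8 µL received 7.5 nL stock; the first replicate is given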
# RanGTP-Imp inh – disruptors of Ran-importin-beta complex formation – biochemical, FRET, CFP-Ran, YFP-importin-beta, homogeneous, primary screen | 300,000 compounds, 1.1% hits | cell-free CFP-Ran/YFP-importin-beta FRET ratio | inhibition, % (test concentration not listed) | AID 2216;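 active means most replicates above 15%; inconclusive means exactly half above 15%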;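 further: 0% = DMSO wells and 100% = Ran loaded with GDP instead of GTP; wells of about 40 µL received 100 nL stock; the first replicate is given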
# B2AR ag – activates human beta-2 adrenergic receptor causing internalization; Am2.2-beta2AR cells, FAP receptor internalization, flow cytometry; reference of the scale not given here; 340,000 compounds, 0.43% hits; P07550; response, % (no concentration beside the values); AID 504454;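 active means response above a set limit, near 3 SD of response in nonfluorescent compounds, cut at about 42% in these data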;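 further: stock transfer was 100 nL into about 11 µL; a reference agonist was the positive control; negative values mostly stem from fluorescent compounds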
# Target sequence (P07550 whole entry, looked up): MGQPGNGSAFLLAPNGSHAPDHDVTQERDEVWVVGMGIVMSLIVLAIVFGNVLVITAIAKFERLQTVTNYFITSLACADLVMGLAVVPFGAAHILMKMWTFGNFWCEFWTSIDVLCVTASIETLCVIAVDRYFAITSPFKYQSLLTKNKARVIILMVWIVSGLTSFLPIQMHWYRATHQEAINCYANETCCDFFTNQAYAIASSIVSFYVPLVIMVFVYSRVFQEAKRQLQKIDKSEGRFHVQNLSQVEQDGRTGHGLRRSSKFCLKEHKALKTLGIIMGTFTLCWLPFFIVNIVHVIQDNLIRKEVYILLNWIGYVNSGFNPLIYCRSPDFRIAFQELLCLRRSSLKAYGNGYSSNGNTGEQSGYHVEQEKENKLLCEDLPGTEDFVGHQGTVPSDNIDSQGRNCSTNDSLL
# LANA-H2B inh – blocks KSHV LANA binding to histone H2A/H2B; Q9QR71; cell-free LANA-H2A/H2B peptide, fluorescence polarization; inhibition, % (concentration not given with the values); 320,000 compounds, 0.6% hits; in the data active means inhibition mostly above about 10%, no sharp cut-off; inactive means mostly below about 6.7%;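 further: stock transfer was 7.5 nL into about 10 µL; 0% = median of vehicle wells and 100% = median of positive control wells; one replicate is shown; the record names a cut of 25% in any replicate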
# Active calls of the source: *; u = inconclusive; x = not tested or not shown.
No. | compound | ALR H2O2 inh | Vif A3G | HNF4A DNA FP | Calb FLC
1 | COc1ccccc1N1C(=O)CC(Sc2n[nH]c(-c3cccc(C)c3)n2)C1=O (centres undefined) | 99* | 8% | 3.7 | 20
2 | COc1cc(NC(=O)c2cc3ccccc3o2)ccc1NC(=O)c1ccco1 | -4 | x | 0.3 | -3
3 | COc1ccc(NC(=O)c2cc(-c3ccccn3)nc3ccccc23)c(OC)c1 | x | -5% | -3.8 | x
4 | CN1N=C2c3ccccc3CCC2C1c1ccc(Cl)cc1 (centres undefined) | -15 | -14% | 0.7 | 6
5 | COc1cc(NC(=O)NCc2ccco2)ccc1-c1ccc(NC(=O)NCc2ccco2)cc1OC | x | -3% | 3.9 | x
6 | COc1ccccc1CN1CC(C(=O)NCCc2ncccc2C)CCC1=O (centres undefined) | x | x | 1.2 | -20
7 | Cc1ccc(N2CCN(S(=O)(=O)c3nnc(NC(=O)c4ccccc4)s3)CC2)cc1 | u | x | 3.0 | -2
8 | NC(=O)C1C(c2ccccc2)=C1c1ccccc1 | 97* | 1% | 1.5 | -7

No. | RanGTP-Imp inh | B2AR ag | LANA-H2B inh
1 | 4.6 | 12 | 7.4
2 | 2.1 | 0 | -1.5
3 | x | 0 | 4.2
4 | -0.7 | -10 | 2.4
5 | x | -7 | x
6 | 0.2 | -1 | x
7 | 3.0 | 3 | 4.1
8 | -3.9 | -2 | 6.9

# 5 of the entries above in order of their number in HNF4A DNA FP, ascending.
no. | Structure | ALR H2O2 inh | Vif A3G | HNF4A DNA FP | RanGTP-Imp inh | B2AR ag | LANA-H2B inh
4 | CN1N=C2c3ccccc3CCC2C1c1ccc(Cl)cc1 (centres undefined) | -15 | -14% | 0.7 | -0.7 | -10 | 2.4
6 | COc1ccccc1CN1CC(C(=O)NCCc2ncccc2C)CCC1=O (centres undefined) | x | x | 1.2 | 0.2 | -1 | x
7 | Cc1ccc(N2CCN(S(=O)(=O)c3nnc(NC(=O)c4ccccc4)s3)CC2)cc1 | u | x | 3.0 | 3.0 | 3 | 4.1
1 | COc1ccccc1N1C(=O)CC(Sc2n[nH]c(-c3cccc(C)c3)n2)C1=O (centres undefined) | 99* | 8% | 3.7 | 4.6 | 12 | 7.4
5 | COc1cc(NC(=O)NCc2ccco2)ccc1-c1ccc(NC(=O)NCc2ccco2)cc1OC | x | -3% | 3.9 | x | -7 | x

# The listing picks up with the 2 entries that preceded the break.
No. | compound | ALR H2O2 inh | Vif A3G | HNF4A DNA FP | Calb FLC
7 | Cc1ccc(N2CCN(S(=O)(=O)c3nnc(NC(=O)c4ccccc4)s3)CC2)cc1 | u | x | 3.0 | -2
8 | NC(=O)C1C(c2ccccc2)=C1c1ccccc1 | 97* | 1% | 1.5 | -7
9 | C[C@H]1CN([C@@H](C)CO)C(=O)Cc2cc(NC(=O)CCC(F)(F)F)ccc2O[C@H]1CN(C)S(C)(=O)=O | -3 | x | 1.7 | x
10 | Fc1ccccc1N1CCN(c2nc(-c3cccs3)nc3ccccc23)CC1 | 1 | 16% | 0.9 | 6
11 | Cc1ccc(-c2csc3nc(=O)c(C)nn23)cc1 | -26 | x | x | 15
12 | Cc1cc(-c2n[nH]c(=S)n2/N=C/C(Cl)=C/c2ccccc2)n[nH]1 | 96* | x | 2.0 | 10
13 | COc1ccc(C(=O)/C=C/c2cn(CC(O)CN3CCOCC3)c3ccccc23)cc1 (centres undefined) | 57 | x | 42* | x
14 | O=C(Cc1ncc(C(F)(F)F)cc1Cl)Nc1ccc(F)cc1 | -6 | -2% | -1.3 | 7
15 | COc1cccc(NC(=O)CCN2C(=O)c3ccc([N+](=O)[O-])cc3C2=O)c1 | -6 | x | -3.6 | 1
16 | CCc1ccc2c(c1)cc(CN(C(=S)Nc1ccccc1C)C1CC1)c1nnnn12 | -5 | 17% | 1.4 | 32

No. | RanGTP-Imp inh | B2AR ag | LANA-H2B inh
7 | 3.0 | 3 | 4.1
8 | -3.9 | -2 | 6.9
9 | x | 0 | 10
10 | -0.3 | -3 | -1.8
11 | -5.1 | x | 0.6
12 | 2.6 | -3 | 1.2
13 | x | 10 | -11
14 | 1.1 | -3 | 3.4
15 | 8.6 | -10 | 0.0
16 | 6.9 | 4 | -9.0

# One compound at a time, from the list above. Order of screens: ALR H2O2 inh, Vif A3G, HNF4A DNA FP, Calb FLC, RanGTP-Imp inh, B2AR ag, LANA-H2B inh
# CCc1ccc2c(c1)cc(CN(C(=S)Nc1ccccc1C)C1CC1)c1nnnn12 in the list: -5, 17%, 1.4, 32, 6.9, 4, -9.0
# O=C(Cc1ncc(C(F)(F)F)cc1Cl)Nc1ccc(F)cc1 in the list: -6, -2%, -1.3, 7, 1.1, -3, 3.4
# Cc1cc(-c2n[nH]c(=S)n2/N=C/C(Cl)=C/c2ccccc2)n[nH]1 in the list: 96*, x, 2.0, 10, 2.6, -3, 1.2
# C[C@H]1CN([C@@H](C)CO)C(=O)Cc2cc(NC(=O)CCC(F)(F)F)ccc2O[C@H]1CN(C)S(C)(=O)=O in the list: -3, x, 1.7, x, x, 0, 10
# COc1cccc(NC(=O)CCN2C(=O)c3ccc([N+](=O)[O-])cc3C2=O)c1 in the list: -6, x, -3.6, 1, 8.6, -10, 0.0

# Additional entries follow:
No. | compound | ALR H2O2 inh | Vif A3G | HNF4A DNA FP | Calb FLC
17 | COC(=O)c1scc(C)c1N1C(=O)c2ccccc2C1=O | -4 | 6% | 2.0 | 19
18 | Cc1oc2cc(O)ccc2c(=O)c1Oc1ccccc1Br | -5 | 0% | -0.6 | 2
19 | O=C1CCN(c2ncccc2[N+](=O)[O-])CC1 | -6 | x | -1.4 | 3
20 | COCCN1Cc2cc3cc(C)ccc3nc2SC1=Nc1ccc(OC)cc1 | -3 | 6% | -2.5 | 29
21 | CCOC(=O)C1=C(CC)Nc2ccccc2N=C1NC(=O)c1ccc(C)c(S(=O)(=O)N2CCOCC2)c1 | x | -7% | 3.6 | x
22 | CC(=O)Nc1cccc(-c2nnc3c4ccccc4c(C)nn23)c1 | -18 | -6% | x | -9
23 | O=C(COc1ccc(Cl)cc1)Nc1ccc(Cl)cn1 | -8 | -5% | -1.7 | -1
24 | COC(=O)c1c(O)c2c([nH]c1=O)CCCC2 | -12 | 24% | -2.8 | 0

No. | RanGTP-Imp inh | B2AR ag | LANA-H2B inh
17 | 2.1 | -9 | 6.8
18 | 0.4 | 2 | -2.5
19 | 8.5 | -8 | 0.8
20 | 2.0 | -4 | 1.0
21 | x | 9 | x
22 | 0.9 | x | 1.6
23 | -0.4 | -12 | -4.2
24 | 0.4 | 1 | -1.1

# Carrying on.
No. | compound | ALR H2O2 inh | Vif A3G | HNF4A DNA FP | Calb FLC
25 | CCCn1c(=O)c(C(=O)NCCc2ccc(OC)cc2)c(O)c2ccccc21 | -9 | x | 2.9 | -5
26 | O=C(N/N=C/C1CC=CCC1)c1ccc(Cl)cc1O (centres undefined) | 17 | -1% | -4.6 | 5
27 | COc1ccc(C(=O)OC(C)C(=O)NC2CCCCC2C)cc1S(=O)(=O)N1CCOCC1 (centres undefined) | 1 | 5% | 0.6 | -1
28 | Cc1cccc(NC(=S)Nn2cnnc2)c1C | 4 | -1% | -0.6 | -17
29 | CC1CCC(NC(=O)c2cc3c(s2)CCCC3)CC1 (centres undefined) | x | 0% | 6.2 | 6
30 | O=C(C1CCN(S(=O)(=O)c2cccc3nsnc23)CC1)N1CCc2ccccc2C1 | -2 | 5% | -0.6 | 5
31 | CC1CCCCN1C(=O)C(Cc1ccccc1)N1C(=O)C2CCCCC2C1=O (centres undefined) | -4 | x | 0.8 | 0
32 | CCCNC(=O)Nc1ccsc1C(=O)OC | 8 | -6% | 1.0 | -5
33 | O=C(COc1ccc(Cl)cc1)Nc1cccc(-c2ccc3nncn3n2)c1 | -7 | -1% | 1.7 | -9
34 | COc1ccc(CCNC(=O)c2ccc3ccccc3n2)cc1 | 3 | x | 2.2 | -11
35 | Clc1ccccc1NCSC1=NCCS1 | x | -1% | 2.6 | x

No. | RanGTP-Imp inh | B2AR ag | LANA-H2B inh
25 | u | -4 | 7.4
26 | -2.9 | 2 | -2.2
27 | 5.6 | -5 | 4.9
28 | 2.9 | -3 | 2.9
29 | -6.7 | 13 | 4.0
30 | 2.7 | 0 | 3.0
31 | u | -3 | 1.4
32 | -1.6 | -2 | -1.2
33 | 3.2 | -5 | 1.4
34 | 0.1 | 1 | 1.1
35 | x | -7 | x

# Screening data: PubChem BioAssay, several laboratories
